Bioassay records (PubChem BioAssay)
GLA inh pH 4.5: inhibitors of human alpha-galactosidase A at pH 4.5. purified enzyme, 4-MU-alpha-Gal fluorescence, pH 4.5. activity change, negative = inhibition, % at 105 µM. 230,000 tested, under 10 active. AID 1467; inconclusive = small, poorly fitted or top-dose-only inhibition, or a rising curve; inactive = flat fitted curve, though single readings scatter; no compound was filed as active;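 also: 0% = full activity with enzyme and -100% = basal without enzyme; dose as in the result columns while the protocol names 77 µM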
Target sequence (P06280 whole entry, looked up): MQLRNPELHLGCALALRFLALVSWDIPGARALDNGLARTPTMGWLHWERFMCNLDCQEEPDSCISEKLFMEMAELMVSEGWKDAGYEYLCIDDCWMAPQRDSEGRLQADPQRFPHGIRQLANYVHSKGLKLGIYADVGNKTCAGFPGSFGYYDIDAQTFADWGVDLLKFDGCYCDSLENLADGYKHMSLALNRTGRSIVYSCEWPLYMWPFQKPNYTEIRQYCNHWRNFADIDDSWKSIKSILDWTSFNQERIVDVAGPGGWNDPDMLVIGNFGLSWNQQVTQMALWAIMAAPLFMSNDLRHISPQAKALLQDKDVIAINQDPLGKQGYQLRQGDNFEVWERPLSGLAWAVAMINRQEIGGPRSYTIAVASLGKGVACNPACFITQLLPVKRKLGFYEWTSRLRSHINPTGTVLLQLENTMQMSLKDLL
Rango-impB inh: prevents formation of the Rango-importin beta complex | Q14974 | Rango CFP/YFP FRET sensor + importin beta, 45 min | Potency, µM (doses to about 92.2 µM), for inactives: at the top dose inhibition of complex formation | hit rate 0.031% among 340,000 | AID 540263; active = rising FRET ratio curve, often small or poorly fitted; inconclusive = mostly compound fluorescence or quenching in the first reads; inactive = flat curves in all reads;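 also: potency is read from the fitted curve at half-maximal effect; 0% = DMSO wells and 100% = buffer wells lacking importin beta; nearly all actives have a fitted effect of over 15% in size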
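FRET biosensor (snurportin 1 IBB flanked by EYFP and cerulean), 50 nM, with compound 5 min, then 0.125 microM importin beta in PBS, 1 mM DTT, 0.02% Tween-20, 0.1% BSA. CFP/YFP ratio read after 45 min at room temperature; pre-read flags interference.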
Rango release inh: inhibitors of RanGTP-induced Rango-importin beta complex dissociation. Biochemical FRET Rango-importin beta, RanGTP-induced dissociation. hit rate 0.071% among 340,000. AID 540253. Potency, µM (series often up to 46.1 µM), for inactives: top-dose activity change, negative = inhibition; active means falling FRET ratio curve, often poorly fitted, with flat reads before Ran was added; inconclusive means other falling curves, or compound fluorescence or quenching; inactive means flat or rising ratio curve;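 also: potency is read from the fitted curve at half-maximal effect; % of control where 0% means no effect; nearly all actives have a fitted effect of over 45% in size; -100% = wells without RanGTP and RCC1; the record marks most hits as doubtful in a second field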
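Compounds preincubate 5 min with complex of recombinant Rango and importin beta in PBS with 1 mM DTT. Ran (0.6 uM) loaded with 2 mM GTP plus 0.2 uM RCC1 starts dissociation; FRET is recorded 45 min later.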
miR-21 reporter: miR-21 reporter, rising signal | HeLa miR-21 FLuc reporter, luciferase, 48 h | Potency, µM (highest dose often 38.3 µM), for inactives: top-dose reporter change, positive = more light | 340,000 tested, under 10 active | AID 2288; active = well fitted rising curve with a large enough effect; inconclusive = small, poorly fitted or top-dose-only effect; inactive = no such curve, though single readings can be large or run the other way;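 also: % of control where 0% means no effect; miR-21 action dims this reporter so a rising signal means less miR-21 action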
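HeLa miR-21-FLuc reporter line, endogenous miR-21; 2000 cells/well in DMEM/10% FBS; compound titration up to ~40uM final, 48 h, 37 degree Celsius; luciferase detection reagent, 15 min lysis, CCD luminescence.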
Starred values were filed as active, the others as inactive; u = inconclusive; x = not tested or not shown; & = joins results of further samples. This is a subset. The share of hits here may be higher or lower than overall.

Structure | GLA inh pH 4.5 | Rango-impB inh | Rango release inh | miR-21 reporter
CN(C)C(C)(C)C#CCC(c1ccccc1)c1ccccc1 | -12 | -2.4% | 16% | 16%
CCn1c(SCc2nc3ccccc3c(=O)[nH]2)nnc1-c1ccncc1 | 1 | -1.0% | 14% | -1%
CCOC(=O)CC1C(=O)NCCN1c1nc2c(C)cccn2c(=O)c1/C=C1\SC(=S)N(CC(C)C)C1=O (stereo not given) | -13 | x | x | 6%
CCC(CO)Oc1cc(NCc2ccc(O)cc2)c2ncn(C(C)C)c2c1 (stereo not given) | x | -3.4% | 12% | x
CO/N=C/c1cccn1-c1nccc(OC)c1C#N | 0 | -3.2% | -13% | -1%
O=C(O)c1cccc(-n2nnnc2SCc2ccccc2Cl)c1 | -1 | -3.4% | 2% | -2%
CC(NCCC(c1ccccc1)c1ccccc1)c1ccccc1 (stereo not given) | 5&-10 | -0.1% | -4% | u
Cc1c(-n2cccc2C=O)cccc1[N+](=O)[O-] | -1 | 0.8% | 0% | -4%
CC(OC(=O)Cn1cc(C(F)(F)F)ccc1=O)C(=O)NC(C)c1ccc(Cl)cc1Cl (stereo not given) | x | 0.3% | -11% | x
Cc1ccc(-c2cc(C(=O)N3CCC(C)CC3)c3ccccc3n2)cc1 | x | -0.9% | 22% | -18%
CCS(=O)(=O)N1CCN(C2CCC(C)CC2)CC1 (stereo not given) | 2 | 0.0% | -3% | 5%
Cc1nn(C)c(C)c1NC(=O)CSc1nc(-c2ccccc2F)nc2c1cnn2-c1ccccc1 | x | 6.4% | -3% | x
CS(=O)(=O)N(CC(=O)NC1CCCCC1)c1cccc(Cl)c1 | -7 | 5.9% | 0% | -3%
O=C(CN1C(=O)c2ccccc2C1=O)Nc1cccc2cccnc12 | 13 | -2.7% | -8% | 1%
O=C(Nc1ccc(Cl)cc1)N1CCCN(Cc2ccc(F)cc2)C1 | -8 | -0.1% | 0% | u
CCOC(=O)c1cnc2ccc(C(=O)OC)cc2c1NCCc1ccc(OC)c(OC)c1 | -5 | -3.8% | -1% | -8%
O=C(CN1C(=O)CCC1=O)Nc1nc(-c2cccs2)cs1 | -28 | 0.2% | u | -1%
COc1ccccc1NC(=O)c1ccc(NC(=O)COC(=O)c2cccnc2Cl)cc1 | x | -4.9% | 4% | x
C[C@@H]1NC(=O)N(CCCn2ccnc2)C1=O | x | 0.0% | 0% | -2%
Nc1c(Cl)cc(-c2cn(CCC(=O)O)c(-c3ccc(Cl)nc3)n2)cc1Cl | x | 0.0% | -4% | x
Cc1[nH]c2ccccc2c1CN1CCc2ccccc2C1 | -4 | u | -13% | 10%
O=C(Cn1ccc(NC(=O)OCc2ccccc2)nc1=O)NCCCn1ccnc1 | x | 0.8% | 1% | x
COc1ccc(NC(=O)CSc2nc3n[nH]c(C)c3c(=N)n2-c2ccc(Cl)c(C)c2)cc1OC | x | -0.4% | 2% | -16%
Cc1ccc(C(=O)N/C(=C\c2ccc(-c3cc(Cl)ccc3Cl)o2)C(=O)NCc2cccnc2)cc1 | x | u | 10µM* | -39%
O=C(Nc1ccn(CCCNCc2ccc3c(c2)OCO3)c(=O)n1)OCc1ccccc1 | x | -5.0% | -11% | x
C=CCSC1=N/C(=C\c2cc(OCC)c(OC(C)=O)c([N+](=O)[O-])c2)C(=O)S1 | 6 | -0.2% | 14% | -5%
CC(=O)Nc1ccc(Nc2ncnc3c2nnn3Cc2ccccc2Cl)cc1 | x | -1.7% | 11% | 0%
CC[n+]1c(/C=C/c2c[nH]c3ccccc23)ccc2cc(C)ccc21 | -7 | u | u | u
CC(=O)Cc1nsc(NC(=O)c2ccco2)n1 | 6 | -1.0% | 14% | -7%
Cc1ccc(NC(=O)CC2C(=O)OCC3CCCCN32)cc1Cl (stereo not given) | -6 | -1.7% | 10% | -3%

Among those listed so far, these have a furan ring, fused or not.
Structure | GLA inh pH 4.5 | Rango-impB inh | Rango release inh | miR-21 reporter
Cc1ccc(C(=O)N/C(=C\c2ccc(-c3cc(Cl)ccc3Cl)o2)C(=O)NCc2cccnc2)cc1 | x | u | 10µM* | -39%
CC(=O)Cc1nsc(NC(=O)c2ccco2)n1 | 6 | -1.0% | 14% | -7%

(listing goes on)
Structure | GLA inh pH 4.5 | Rango-impB inh | Rango release inh | miR-21 reporter
COC(=O)c1ccc(NS(=O)(=O)c2cc(-c3cc(C)no3)ccc2OC)cc1 | x | -1.1% | -14% | 20%
COc1nc(C)cc(C)c1S(=O)(=O)c1ccc(Cl)cc1 | x | u | -7% | -3%
O=C(Nc1ccc2c(c1)OCO2)C1CCCCN1S(=O)(=O)c1ccccc1 (stereo not given) | -2 | -1.2% | 12% | -7%
C[C@H](NC(=O)C1CCN(S(=O)(=O)c2ccccc2)CC1)C(=O)NCc1ccco1 | x | 0.9% | -8% | 2%
Cc1sc2ncnc(SCC(=O)c3cccs3)c2c1C | 4 | u | -23% | -50%
O=C(COc1cccc2c1CCN(Cc1ccccc1)C2=O)NCc1ccco1 | 0 | 1.3% | 5% | -20%
Cc1ccc(NC(=O)C2CCN(S(=O)(=O)c3ccc(C(C)(C)C)cc3)CC2)cc1S(=O)(=O)N1CCOCC1 | x | -2.5% | -3% | x
COc1cccc(-c2nc(C=O)cs2)c1 | 4 | -0.1% | 0% | -16%
COc1cccc2cc(/C(C)=N/Nc3nc(-c4cc(C)ccc4C)cs3)c(=O)oc12 | -3 | -0.3% | 13% | -8%
CCOC(=O)C1CCCN(S(=O)(=O)c2cc3c4c(c2)CCN4C(=O)CC3)C1 (stereo not given) | x | 3.1% | -8% | x
CC(NC(=O)CCCc1nnc2n(C)c(=O)c3sccc3n12)c1ccccc1 (stereo not given) | x | -0.8% | -3% | 5%
CCCSc1nnc(CNS(=O)(=O)c2ccc(C)cc2)n1C | x | -0.5% | 2% | 0%
O=C(c1cc([N+](=O)[O-])cc([N+](=O)[O-])c1)N1CCCc2ccccc21 | 3 | -7.8% | 22% | 1%
O=C(Cc1c(Cl)cccc1Cl)Nc1ccncc1 | x | 0.1% | -6% | 10%
COc1nc2ccccc2c(=O)n1OCC(C)C | 5 | 2.2% | 4% | -7%
Oc1ccc(C[C@@H]2CNC(=S)N2CCc2cc(C(F)(F)F)cc(C(F)(F)F)c2)cc1 | -8 | 2.4% | 2% | 8%
COc1ccc(-c2coc3cc(O)ccc3c2=O)cc1OC | -1 | -0.7% | 16% | -66%
Cn1c(SCC(=O)Nc2nccs2)nnc1-c1ccco1 | 3 | -1.1% | 19% | -4%
O=C(O)c1[nH]c2ccccc2c1C(c1ccccc1)c1c(C(=O)O)[nH]c2ccccc12 | x | -3.6% | 32% | -2%
O=C(Cn1c(=O)oc2cc(S(=O)(=O)N3CCCC3)ccc21)N1CCN(C2CCCCC2)CC1 | -9 | -0.2% | 7% | 1%
CC1=C(c2ccc(C)cc2)S(=O)(=O)N(CC(=O)O)C1=O | 5 | 1.8% | -2% | -7%
CCCCN(C(=O)C1CCC1)c1c(N)n(CC(C)C)c(=O)[nH]c1=O | x | 0.4% | 0% | x
Cc1ccc(C(=O)Nc2sc(C)c(-c3ccccc3)c2C(N)=O)cc1[N+](=O)[O-] | 1 | 3.3% | 6% | -58%
CSCCC(NC(=O)c1ccc(Cl)cc1)C(=O)OCC(=O)Nc1cc(Cl)ccc1C (stereo not given) | -3 | -5.2% | -2% | 1%
CC(=O)c1c(C)[nH]c(C(=O)Nc2ccccc2N2CCOCC2)c1C | 5 | 1.9% | 10% | -1%
COc1cc(OC)cc(C(=O)Nc2cc(C)on2)c1 | x | 0.6% | -4% | -6%
O=C(CN1C(=O)NC2(CCCC2)C1=O)c1ccc(Cl)s1 | x | -0.1% | 14% | x
Cc1ccc(N(CCC#N)C(=O)CSc2ccc3c(c2)OCCO3)cc1 | 3 | 0.5% | -10% | -6%
CN1CCN(NC(=O)c2cc(-c3cccc(Cl)c3)nc3ccccc23)CC1 | 5 | 2.1% | -5% | -16%
CCCC(=O)c1ccc(-c2ccccc2)cc1 | 0 | -1.8% | -18% | -24%

Structure | GLA inh pH 4.5 | Rango-impB inh | Rango release inh | miR-21 reporter
Nc1n[nH]c2ccccc12 | -17 | 0.8% | -7% | -4%
CC(C)C[C@H](NC(=O)c1[nH]cnc1C(=O)N[C@H](C)c1ccccc1)C(=O)OC(C)(C)C | -16 | -1.5% | 28% | 11%
COc1cc(C(CCN2CCN(c3ccccc3)CC2)c2c(OC)cc(OC)c3ccc(=O)oc23)cc(OC)c1OC (stereo not given) | -10 | -0.1% | 0% | -1%
C#Cc1ccc([C@H]2C=C(C(=O)OCC=C)O[C@@H](OCc3ccc(CO)cc3)C2)cc1 | x | 2.8% | -17% | x
Cc1ccc(-c2nnn(CC(=O)N3C(C)CCCC3C)n2)cc1 (stereo not given) | x | 0.2% | -9% | -3%
COc1c(Cl)cc(Cl)cc1C(=O)Nc1ccccc1N1CCN(C(C)=O)CC1 | x | -0.4% | 1% | x
O=C(COC(=O)CCC(=O)N1CCOCC1)Nc1ccc(Br)cc1Br | x | 1.3% | 1% | x
CCOc1cc(NC(=S)Nc2cccc(OC)c2)c(OCC)cc1NC(=O)c1ccc(C)cc1 | 4 | 0.5% | 8% | -2%
C=C1CCC[C@]2(C)C[C@H]3OC(=O)C(CN4CCOCC4)[C@H]3C[C@@H]12 (stereo not given in full) | x | 1.3% | -8% | 0%
CC(=O)Nc1ccc(S(=O)(=O)NC2(C(F)(F)F)NC(=O)N(c3ccc(Cl)cc3)C2=O)cc1 (stereo not given) | -6 | 2.4% | -17% | 1%&0%
CCOC(=O)N1CCN(C(=O)CCc2c(C)nc3nc(C)nn3c2C)CC1 | -2 | -3.0% | 19% | -2%
C/C=C/c1ccc(OCC(=O)NNC(=O)CN(C)S(=O)(=O)c2ccc(C)cc2)c(OC)c1 | x | -0.8% | -6% | x
Cc1cc(NC(=O)CSc2nnc(-c3ccccc3Cl)o2)no1 | x | 0.6% | 1% | -20%
CCN=C1S/C(=C\c2ccc(N3CCOCC3)cc2C)C(=O)N1CC | -2 | 7.4% | 40% | -14%
CCOc1ccccc1N(C)C(=O)C1CCN(S(=O)(=O)c2cccc3nonc23)CC1 | -1 | u | -18% | 3%
Cc1c(NC(=O)c2ccc(F)cc2)c(=O)n(-c2ccccc2)n1C | 2 | 3.7% | 0% | 0%
CCOc1ccc(CN2CCN(S(=O)(=O)c3ccc(NC(C)=O)cc3)CC2)cc1OC | -3 | 2.5% | 29% | 5%
Cc1cc(C=C2C(=O)c3ccccc3C2=O)c(C)n1-c1ccc(Cl)cc1 | -11 | u | u | -6%
Cn1c(-c2ccc3c(c2)OCO3)cnc1NCc1cccc(Cl)c1 | 2 | -1.2% | 2% | -33%
CC(C)c1ccc(N2C(=O)CC(Sc3ncn[nH]3)C2=O)cc1 (stereo not given) | 4 | -0.3% | 1% | 2%
COc1ccc(-c2cc(CCCC(=O)NCCc3cc(OC)ccc3OC)no2)cc1 | 1 | 0.0% | -7% | 14%
Cc1ccc(NC2=NC(c3ccccc3)n3c(nc(C)cc3=O)N2)c(C)c1 (stereo not given) | 7 | -0.3% | -3% | 0%
Cc1ccc(N2CC(C(=O)Nc3nnc(SCc4cccnc4)s3)CC2=O)cc1 (stereo not given) | x | 0.4% | -15% | -14%
CC1CC(C)CN(S(=O)(=O)c2cccc3nonc23)C1 (stereo not given) | x | 1.6% | 6% | 1%
O=S(=O)(NCc1ccc2c(c1)OCO2)c1cccc2cccnc12 | 8 | 2.5% | 1% | -2%
CC1CCc2nn(CC(=O)NCCC3=CCCCC3)cc2C1 (stereo not given) | 4 | 0.8% | u | -19%
CCCCCCCCOc1ccc(C(=O)O)cc1 | x | 0.3% | 2% | x
Cc1cc(C)c(N)cc1C | x | -2.2% | -9% | x
